MITF inhib – inhibitors of MITF; TRPM1 promoter luciferase, luminescence, 24 h; inhibition, % (test concentration not listed); actives 0.28% (n = 37,000);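 active = most replicates at 85% or more, or half of them and the mean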;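 also: human melanocyte line stably carrying TRPM1 promoter luciferase reporter; 0% = vehicle wells and 100% = a positive control; the first replicate is given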
YB-1 expression – YB-1 expression inhibition; U2OS, qRT-PCR YB-1 vs CDIP delta delta Cp, 16 h; active compounds read high; zero = DMSO, each unit about twofold; delta delta Cp (YB-1 minus CDIP) (concentration not given with the values); actives 0.37% (n = 30,000); AID 434959;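 active = delta delta Cp rounded down to an integer at or above 3, about 3 SD of DMSO wells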;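 also: higher means less YB-1 transcript or more CDIP transcript relative to DMSO; stock transfer was 100 nL into about 100 µL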
PD-1 reverse act – activators reversing PD-1 mediated T-cell inhibition; primary human CD4 T cells, PD-L1 beads, CellTiter-Glo 96 h; AID 2316; 29,000 tested, under 10 active; activation, % (test concentration not listed);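 active = replicate mean of 50% or more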;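 also: 0% = median vehicle wells and 100% = positive control; 100 nL library stock added to about 50 µL; numbers are from one replicate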
Shh pathway inh – Sonic Hedgehog pathway inhibition; Shh-LIGHT2 Gli-luciferase reporter, 30 h; inhibition, % (test concentration not listed); actives 2.1% (n = 22,000); AID 2313;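 active = replicate mean of 65% or more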;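 also: pathway switched on by Shh-conditioned medium diluted 1 in 25 in low serum; 100 nL library stock added to about 40 µL; 0% = median of neutral wells and 100% = positive control level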
* = called active by the depositor; . = not tested or not shown. The list is partial, so the mix of outcomes need not match the whole.

SMILES | MITF inhib | YB-1 expression | PD-1 reverse act | Shh pathway inh
C[C@@H]1CN([C@@H](C)CO)C(=O)Cc2cc(NS(=O)(=O)c3cccs3)ccc2O[C@@H]1CN(C)Cc1ccc(Oc2ccccc2)cc1 | 26 | 0.32 | -3.2 | 39
O=C(CSc1nc2ccccc2c(=O)[nH]1)c1ccc(-c2ccccc2)cc1 | -12 | -0.28 | -0.8 | -30
O=C(Nc1ccccc1)Nc1csc(-c2ccc(C(F)(F)F)cc2)n1 | 5 | -0.32 | -0.1 | -22
Cc1ccc2nc(SCC(=O)NCc3ccccc3)[nH]c2c1 | -8 | . | 1.7 | .
C[C@H](CO)N1C[C@H](C)[C@H](CN(C)S(=O)(=O)c2ccccc2)Oc2ccc(NC(=O)Nc3ccc(F)cc3)cc2C1=O | -41 | 0.57 | -0.1 | .
CCc1cccc(C)c1NC(=O)CSc1nnc(-c2ccncc2)n1-c1ccc(C)cc1 | 4 | . | -0.7 | .
CC1=CC(CC2(C)OC2COc2c3occc3cc3ccc(=O)oc23)OC1=O (configuration not stated) | -27 | -0.076 | 2.3 | -37
COc1ccc(-c2coc3c(OC)c(O)ccc3c2=O)cc1 | -39 | 0.3 | . | -17
COc1ccc(NC(=O)Nc2ccc3c(c2)CC(=O)N([C@H](C)CO)C[C@H](C)[C@H](CN(C)S(=O)(=O)c2c(C)noc2C)O3)cc1 | -5 | -0.18 | 0.3 | -31
CC(C)COc1ccc(/C(=N\O)c2ccccc2)cc1 | 7 | -0.37 | -2.0 | 6
CCc1ccc2nc(-c3cccc(OC)c3)cc(C(=O)NCc3ccco3)c2c1 | -46 | . | -1.2 | .
O=C(Nc1ccc(Br)cc1)C12CC3CC(CC(C3)C1)C2 | -2 | -0.14 | 0.3 | -15
COc1ccc(CN(C)C[C@H]2Oc3c(NS(=O)(=O)c4ccccc4)cccc3C(=O)N([C@@H](C)CO)C[C@H]2C)cc1 | 2 | 1.2 | -0.1 | -17
C[C@H]1CN([C@@H](C)CO)C(=O)c2cc(NC(=O)C3CC3)ccc2O[C@H]1CN(C)Cc1ccc2c(c1)OCO2 | 5 | -0.1 | 1.3 | -9
Cc1csc2nc(SCC(=O)Nc3ccc([N+](=O)[O-])cc3)[nH]c(=O)c12 | 38 | . | -0.1 | .
Cc1cccc(C)c1NC(=O)COc1ccc2cc(-c3ccccc3)c(=O)oc2c1 | 9 | . | -1.7 | .
Cc1ccc(OCC(O)CN2C(=O)NC(C)(C)C2=O)cc1 (configuration not stated) | -2 | 0.8 | -0.3 | .
C[C@@H]1CN([C@@H](C)CO)C(=O)Cc2cc(NC(=O)Nc3ccccc3)ccc2O[C@@H]1CN(C)CC1CCCCC1 | -3 | 0.39 | . | -9
Cc1nc(SCC(=O)N(c2ccccc2)c2ccccc2)n[nH]1 | 11 | . | 0.3 | .
C[C@@H]1CN([C@@H](C)CO)C(=O)c2cccc(NC(=O)Nc3ccccc3)c2O[C@H]1CN(C)S(C)(=O)=O | -3 | 0.26 | -0.5 | -10
COc1ccc(NC(=O)N(C)C[C@@H]2Oc3ccc(NC(=O)CCN4CCOCC4)cc3C(=O)N([C@H](C)CO)C[C@H]2C)cc1 | -5 | 0.31 | 0.7 | -1
C[C@@H]1CN([C@H](C)CO)C(=O)c2cccc(NC(=O)Nc3ccc4c(c3)OCO4)c2O[C@@H]1CN(C)S(=O)(=O)c1ccccc1 | -52 | -0.15 | -1.4 | 5
C[C@H](CO)N1C[C@H](C)[C@H](CN(C)Cc2ccc3c(c2)OCO3)Oc2c(cccc2N(C)C)C1=O | -5 | -0.0096 | 0.5 | -28
C[C@H](CO)N1C[C@H](C)[C@@H](CN(C)C(=O)Nc2ccc3c(c2)OCO3)Oc2ccc(NS(=O)(=O)c3cn(C)cn3)cc2C1=O | -3 | -0.53 | 2.8 | -12
Cc1noc(C)c1NC(=O)N(C)C[C@@H]1Oc2c(NC(=O)c3nc4ccccc4s3)cccc2C(=O)N([C@@H](C)CO)C[C@@H]1C | -8 | -0.18 | -0.5 | -11

Whole records as entered above. Order of screens: MITF inhib	YB-1 expression	PD-1 reverse act	Shh pathway inh
`Cc1ccc(OCC(O)CN2C(=O)NC(C)(C)C2=O)cc1` (configuration not stated) is listed as -2	0.8	-0.3	.
`C[C@@H]1CN([C@@H](C)CO)C(=O)Cc2cc(NS(=O)(=O)c3cccs3)ccc2O[C@@H]1CN(C)Cc1ccc(Oc2ccccc2)cc1` is listed as 26	0.32	-3.2	39
`C[C@H](CO)N1C[C@H](C)[C@H](CN(C)Cc2ccc3c(c2)OCO3)Oc2c(cccc2N(C)C)C1=O` is listed as -5	-0.0096	0.5	-28
`COc1ccc(-c2coc3c(OC)c(O)ccc3c2=O)cc1` is listed as -39	0.3	.	-17
`Cc1csc2nc(SCC(=O)Nc3ccc([N+](=O)[O-])cc3)[nH]c(=O)c12` is listed as 38	.	-0.1	.

Later entries.
SMILES | MITF inhib | YB-1 expression | PD-1 reverse act | Shh pathway inh
C[C@H]1CN([C@@H](C)CO)C(=O)c2cc(NS(=O)(=O)c3cn(C)cn3)ccc2O[C@@H]1CN(C)S(=O)(=O)c1cn(C)cn1 | -2 | -0.044 | 1.8 | -37
Cc1noc(C)c1NC(=O)N(C)C[C@@H]1Oc2ccc(NC(=O)Cc3ccccc3)cc2C(=O)N([C@@H](C)CO)C[C@@H]1C | 4 | 0.34 | -0.7 | -24
C[C@H](CO)N1C[C@H](C)[C@H](CN(C)Cc2ccc(-c3ccccc3)cc2)Oc2c(NS(=O)(=O)c3ccccc3)cccc2C1=O | 1 | -0.45 | -1.2 | -23
C[C@@H]1CN([C@H](C)CO)C(=O)c2cc(NC(=O)Nc3ccc(F)cc3)ccc2O[C@@H]1CN(C)S(=O)(=O)c1cn(C)cn1 | 5 | -0.064 | 0.5 | -7
C[C@H](CO)N1C[C@H](C)[C@H](CN(C)C(=O)Nc2ccccc2)Oc2c(NC(=O)CCCCCC(=O)Nc3ccccc3N)cccc2C1=O | -23 | 0.085 | 0.7 | .
COc1ccc(NC(=O)Nc2ccc3c(c2)C(=O)N([C@H](C)CO)C[C@H](C)[C@H](CN(C)C(=O)Nc2ccc4c(c2)OCO4)OCCCC[C@@H](C)O3)cc1 | -7 | -0.18 | -0.8 | -16
C[C@@H]1CN([C@@H](C)CO)C(=O)c2cc(NC(=O)Nc3ccc(C(F)(F)F)cc3)ccc2O[C@H]1CN(C)C(=O)Nc1ccc2c(c1)OCO2 | 20 | -0.42 | 2.4 | 23
COc1ccccc1NC(=O)c1ccc(OCC(=O)Nc2ccccc2F)cc1 | -9 | . | 0.9 | .
CNC[C@H]1Oc2ccc(NC(=O)Cc3cn(C)c4ccccc34)cc2C(=O)N([C@@H](C)CO)C[C@@H]1C | 19 | -0.22 | 0.2 | 0
Cc1occc1C(=O)Nc1cccc(Cn2cccn2)c1 | -20 | . | 0.4 | .
C[C@H](CO)N1C[C@H](C)[C@H](CN(C)S(=O)(=O)c2ccc(Cl)cc2)Oc2ccc(NC(=O)C3CCCCC3)cc2C1=O | 4 | -0.075 | -0.8 | .
Cc1ccc(S(=O)(=O)Nc2ccc3c(c2)C(=O)N([C@@H](C)CO)C[C@H](C)[C@H](CN(C)Cc2ccc(Oc4ccccc4)cc2)O3)cc1 | 11 | -0.21 | 1.9 | 16
CCOc1ccc(NC(=O)CSc2nnc(-c3ccc(Cl)c(Cl)c3)n2C)cc1 | 2 | . | 0.9 | .
COc1ccc(CN(C)C[C@@H]2Oc3ccc(NC(=O)C4CC4)cc3C(=O)N([C@H](C)CO)C[C@H]2C)cc1 | -1 | 0.3 | 2.5 | -25
C[C@H]1CN([C@@H](C)CO)C(=O)c2cccc(NC(=O)c3ccncc3)c2O[C@H]1CN(C)C | 0 | -0.25 | 2.8 | -21
C[C@H](CO)N1C[C@H](C)[C@@H](CN(C)C(=O)NC2CCCCC2)Oc2ccc(NC(=O)CCCCCC(=O)Nc3ccccc3N)cc2C1=O | 4 | 0.28 | 0.4 | .
COc1ccccc1N1CCN(CCCCNC(=O)c2ccc(-c3ccc(C(C)=O)cc3)cc2)CC1 | 4 | 0.1 | . | 92*
COc1ccc(S(=O)(=O)Nc2ccc3c(c2)CC(=O)N([C@H](C)CO)C[C@H](C)[C@H](CN(C)Cc2ccncc2)O3)cc1 | 4 | 0.42 | . | -29
C[C@@H]1CN([C@H](C)CO)C(=O)Cc2cc(NC(=O)Nc3ccc(C(F)(F)F)cc3)ccc2O[C@H]1CN(C)C(=O)Nc1ccc2c(c1)OCO2 | -8 | 0.042 | 0.1 | -12
C[C@@H]1CN([C@@H](C)CO)C(=O)c2cccc(NS(=O)(=O)c3ccccc3)c2O[C@@H]1CN(C)C(=O)Nc1ccc(F)cc1 | -5 | -0.3 | -0.7 | -20
Cc1cc(C(=O)Nc2cccc3c2O[C@@H](CN(C)C(=O)Nc2ccc(C(F)(F)F)cc2)[C@H](C)CN([C@@H](C)CO)C3=O)n(C)n1 | -13 | -0.073 | . | -2
C/C=C(/C)C(=O)O[C@H]1CC(C)(C)C[C@H]2C3=CCC4[C@@]5(C)CC[C@H](O[C@@H]6O[C@H](C(=O)O)[C@@H](O[C@@H]7O[C@H](CO)[C@H](O)[C@H](O)[C@H]7O[C@@H]7O[C@H](CO)[C@@H](O)[C@H](O)[C@H]7O)[C@H](O)[C@H]6O[C@@H]6O[C@@H](C)[C@H](O)[C@@H](O)[C@H]6O)C(C)(C)C5CC[C@@]4(C)[C@]3(C)[C@@H](O)[C@@H](O)[C@@]12CO (some centres not stated) | 94* | 10* | -17 | 100*
CC(=O)SCC(Cc1ccccc1)C(=O)NCC(=O)OCc1ccccc1 (configuration not stated) | 4 | 2 | 0.4 | 7
C[C@H](CO)N1C[C@H](C)[C@H](CN(C)Cc2ccc(Cl)c(Cl)c2)Oc2ccc(NC(=O)c3ccncc3)cc2C1=O | 15 | -0.071 | -2.2 | 86*
COC(=O)c1cc(NC(=O)Cc2ccccc2[N+](=O)[O-])ccc1Cl | 25 | . | 0.2 | .

Limited to MITF inhib, YB-1 expression and Shh pathway inh (2 entries from above):
| mol | MITF inhib | YB-1 expression | Shh pathway inh |
| --- | --- | --- | --- |
| COc1ccccc1NC(=O)c1ccc(OCC(=O)Nc2ccccc2F)cc1 | -9 | . | . |
| CNC[C@H]1Oc2ccc(NC(=O)Cc3cn(C)c4ccccc34)cc2C(=O)N([C@@H](C)CO)C[C@@H]1C | 19 | -0.22 | 0 |

Other results
SMILES | MITF inhib | YB-1 expression | PD-1 reverse act | Shh pathway inh
C[C@H](CO)N1C[C@H](C)[C@H](CN(C)Cc2ccc(C(F)(F)F)cc2)Oc2ccc(NC(=O)c3ccncc3)cc2C1=O | -5 | -0.55 | -3.0 | .
C[C@@H]1CN([C@H](C)CO)C(=O)Cc2cc(NC(=O)Nc3cccc4ccccc34)ccc2O[C@@H]1CN(C)S(=O)(=O)c1ccc(Cl)cc1 | 19 | 0.093 | 0.8 | 16
CC(=O)c1cccc(NC(=O)C(C)N2C(=O)C3C4C=CC(C5CC45)C3C2=O)c1 (configuration not stated) | 8 | . | 0.1 | .
Cc1nc(SCC(=O)Nc2ccc(Br)cc2)n[nH]1 | 0 | . | 0.1 | .
C[C@@H]1CN([C@H](C)CO)C(=O)c2cc(NS(=O)(=O)c3cn(C)cn3)ccc2O[C@H]1CN(C)Cc1ccc(C(F)(F)F)cc1 | 4 | 0.23 | 2.2 | .
C[C@@H]1CCCCO[C@@H](CN(C)C)[C@@H](C)CN([C@H](C)CO)C(=O)c2cc(N(C)C)ccc2O1 | 6 | -0.0047 | . | -4
Cc1cc(C)n2nc(NCc3cccc([N+](=O)[O-])c3)nc2n1 | -5 | . | 2.3 | .
C(=N/n1cnnc1)/c1cccc2c1OCCCO2 | -35 | -0.43 | -1.3 | -36
CC(C)Nc1nc(-c2cccs2)cc(C(F)(F)F)c1C#N | 4 | -0.022 | -1.6 | 34
COc1ccc(NC(=O)N(C)C[C@@H]2Oc3ccc(NC(=O)Cc4cn(C)c5ccccc45)cc3CC(=O)N([C@H](C)CO)C[C@@H]2C)cc1 | 9 | -0.0032 | -1.0 | 9
CCOC(=O)COc1c(C#N)sc2c1c(=O)n(-c1ccccc1)c(=S)n2-c1ccccc1 | -4 | -0.14 | -1.0 | 9
Cc1nc2ccccc2nc1CSc1nc2ccccc2s1 | -19 | . | 0.0 | .
C[C@@H]1CN([C@@H](C)CO)C(=O)Cc2cc(NC(=O)c3ccncc3)ccc2O[C@@H]1CN(C)C(=O)Nc1ccc(C(F)(F)F)cc1 | -8 | 0.0094 | . | -5
CC(=O)O[C@@H]1[C@@H](O)C[C@@]2(C)C(CC[C@@H](C)C23Cc2c(O)cc4c(c2O3)CN([C@@H](CCC(=O)O)C(=O)O)C4=O)C1(C)C (some centres not stated) | -6 | 1.3 | 0.7 | 12
COC(=O)c1ccc(Cl)c(NC(=O)CSc2nc3c(c(C(F)(F)F)n2)CCCC3)c1 | -1 | . | 0.8 | .
